NPYLR7 agonist – agonists of mosquito NPYLR7 receptor, primary screen, cell-based, Aedes aegypti, calcium fluorescence, mosquito biting behavior. HEK293T NPYLR7/Galpha15, GCaMP6s calcium fluorescence. Aedes aegypti neuropeptide Y-like receptor 7 (NPYLR7). 270,000 tested, 0.15% active. activation, % at 10 µM; in the data active = activation above about 40%;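 note: 0% = vehicle and 100% = reference agonist at the receptor; some compounds past the cut are filed as inactive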
NPYLR7 agonist max-min – also measured in NPYLR7 agonist; calls as there; activation, %; measured here: Max-Min RFU normalised activation; some inactives read as strong as hits;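 span of the calcium signal over five minutes; 0% = vehicle and 100% = native peptide agonist; compound fluorescence can raise it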
Numbers without * were called inactive; & = joins results of further samples. Some of the compounds tested. The share of hits here may be higher or lower than overall.

Under each structure: NPYLR7 agonist | NPYLR7 agonist max-min
COc1cccc(-c2ccc(SCC(=O)N3CCCC3)nn2)c1
 : -1 | -2
CCc1ccc(NC(=O)CSc2nc(=O)n(Cc3ccncc3)c3c2CCCC3)cc1
 : 4 | 2
O=C1S/C(=C/c2ccc(F)cc2)C(=O)N1CCn1cnnn1
 : 2 | -1
CCc1nc2c(OCc3ccc(S(C)(=O)=O)cc3)cccn2c1N(C)C(=O)CC(C)C
 : 1 | 5
COc1cc(-c2ccnc(N3CCN(C(=O)c4cc(C(F)(F)F)ccc4F)CC3)n2)cc(OC)c1OC
 : 6 | 4
COC(=O)c1ccc(=O)[nH]c1
 : 1 | -2
COc1ccc2cc(C(=O)NC(C)=O)c(=Nc3cccc(F)c3)oc2c1
 : 1 | -5
CCCC1(C2CCN(C(=O)/C=C/c3cc(F)cc(F)c3)CC2)NC(=O)N(CC2CCCO2)C1=O (centres undefined)
 : 21 | 5
CCCN1CCCCC1C(=O)Nc1ccc2c(c1)OC1(CCCC1)O2 (centres undefined)
 : -30 | -27
CCN(CC1CC(c2ccccc2C)=NO1)C(=O)C1CC1 (centres undefined)
 : -1 | 9
CN1[C@@H](c2ccccc2)[C@@H](C(=O)NCCc2cccnc2)C[C@@]1(C)C(=O)O
 : 0 | -1
Cn1c(-c2ccccc2)csc1=N
 : 0 | -1
Cn1nc(C(=O)NCc2ccccc2)c2c1CCN(C(=O)c1cn3ccccc3n1)C2
 : 13 | 3
O=S(=O)(c1ccc(-c2cnco2)cc1)N1CCCC1c1ccccn1 (centres undefined)
 : 7 | 4
Cc1ccsc1C(CNC1CCN(C(=O)c2ccccc2)CC1)N(C)C (centres undefined)
 : 19 | 4
CC1CC(C)n2nccc2N1C(=O)CCc1ccccc1Cl (centres undefined)
 : 11 | 11
CN(CC1CCCN(CCc2cccc(C(F)(F)F)c2)C1)C(=O)Cc1cccnc1 (centres undefined)
 : 6 | 1
O=C(c1ccc(Cl)cc1Cl)N1CCCC(OCc2ccc(OC(F)(F)F)cc2)C1 (centres undefined)
 : -3 | 1
COCCn1c(C)cc(O)c(C(c2ccncc2)N2CCC(Cc3ccccc3)CC2)c1=O (centres undefined)
 : 14 | 12
CCc1c(C)nc(-n2nc(C)cc2C)n(CC(=O)Nc2ccccc2)c1=O
 : 0 | -1

(list continues)
Under each structure: NPYLR7 agonist | NPYLR7 agonist max-min
O=c1oc2cc(O)ccc2cc1-c1nc2ccccc2o1
 : 216* | 197*
C=c1ccc2cc(=C3N=C(C4CCCO4)ON3)c(=O)[nH]c2c1 (centres undefined)
 : 4 | -2
COc1cccc(CN(C)Cc2ncc(Cl)n2C)c1OC
 : 2 | 2
O=C(Nc1ccccc1)c1cc2n(n1)CCN(C(=O)c1cn[nH]c1C1CC1)C2
 : 1 | -4
Cn1ccnc1CN1CCC(c2ccnc(-c3csc4ccccc34)c2)C1 (centres undefined)
 : -3 | -4
CCOCCCN(CC(=O)N(Cc1ccc(F)cc1)Cc1ccco1)C(=O)COc1ccc(Cl)cc1
 : -14 | -10
COCc1c(Br)c(C)nc(OCC(=O)N/N=C\c2ccc(-c3ccc(Cl)cc3)o2)c1C#N
 : -5 | -9
CCc1c(C)nc(-n2nc(C)cc2C)n(CC(=O)N2CCC(C)CC2)c1=O
 : -3 | -4
CCN1CC=C2C(C#N)C(=N)C(C#N)(C#N)C(c3ccsc3)C2C1 (centres undefined)
 : 26 | 25
O=C1NCC(CN2CCOc3c(O)cc(-c4cccc(Cl)c4)cc3C2)O1 (centres undefined)
 : 4 | 3
Cc1nn(C)c(C)c1CCC(=O)N1CCN(S(=O)(=O)c2ccccc2F)CC1
 : 3 | -3
CC(C(=O)N1CCOCC1)N1CCCC(c2cc3ccccc3[nH]2)C1 (centres undefined)
 : -16&2 | -15&1
O=[N+]([O-])c1ccccc1SN1CCCc2ccccc21
 : 10 | 9
CCn1c(SCC(=O)N2CCCC2)nc2c([nH]c3ccccc32)c1=O
 : 0 | 1
CC(=O)Nc1ccc(C2=NN(C(C)=O)C(c3ccco3)C2)cc1 (centres undefined)
 : 0 | -5
O=C(CSc1ncnc2c1nnn2Cc1ccccc1F)N1CCOCC1
 : 16 | 14
Cc1ccccc1-n1c(SCC#N)nnc1N1CCOCC1
 : 1 | 14
CCN1CCN(C(=O)c2cc(-c3ccc(C)cc3)nc3c2c(C)nn3C2CCS(=O)(=O)C2)CC1 (centres undefined)
 : 3 | 10
CCOCc1cc(CN2CCC(CO)(Cc3ccccc3Cl)CC2)ccc1OC
 : -5 | -7
CCn1nc(C(C)C)cc1C(=O)n1ccccc1=NC(C)C
 : 2 | 13

Part of the list above in order of formula weight, falling.
Under each structure: NPYLR7 agonist | NPYLR7 agonist max-min
O=C(c1ccc(Cl)cc1Cl)N1CCCC(OCc2ccc(OC(F)(F)F)cc2)C1 (centres undefined)
 : -3 | 1
O=C(CSc1ncnc2c1nnn2Cc1ccccc1F)N1CCOCC1
 : 16 | 14
Cc1ccsc1C(CNC1CCN(C(=O)c2ccccc2)CC1)N(C)C (centres undefined)
 : 19 | 4
CC1CC(C)n2nccc2N1C(=O)CCc1ccccc1Cl (centres undefined)
 : 11 | 11
O=c1oc2cc(O)ccc2cc1-c1nc2ccccc2o1
 : 216* | 197*

Further results
Under each structure: NPYLR7 agonist | NPYLR7 agonist max-min
CCc1[nH]n(-c2ccccc2)c(=O)c1C1=C(N2CCCCC2)C(=O)N(C2CCCCC2)C1=O
 : 14 | 16
CC1Cc2ccccc2N1Cc1cc(Cl)nc(Cl)c1 (centres undefined)
 : 15 | 15
O=C(NN=CC(Br)=Cc1ccccc1)c1cnccn1
 : -1 | -5
CSc1ccc(NC(=O)c2ccc3c(c2)OCCO3)cc1
 : 4 | 3
COCCN(Cc1cccc2ccccc12)C(=O)c1cn(-c2ccccc2)nn1
 : -6 | -6
Cc1cc(C)nc(SCc2cc(=O)c(OC(=O)c3cccc([N+](=O)[O-])c3C)co2)n1
 : -11 | -9
O=c1[nH]ncc(N2CCCN(Cc3ccc(Cl)cc3)CC2)c1Cl
 : 9 | 6
CC(C)=C(C(=O)NCc1ccc(C(=O)N2CCCCCC2)cc1)n1ccnc1
 : 2 | 1
CCc1ccccc1-n1c(C)n[nH]c1=O
 : 6 | 4
CC(=O)Nc1ccc(Sc2ncnc3sccc23)cc1
 : -3 | -4
Cc1ccccc1C(=O)NNc1nc(-c2ccccc2)c2cc(Br)ccc2n1
 : -2 | -8
COc1ccc(COC(=N)c2cncc(Cl)n2)cc1
 : -7 | -10
O=C(O)CN1C(=O)/C(=C/c2ccsc2)SC1=S
 : -6 | 3
COC(=O)c1ccc(Cn2cnc3cnccc32)cc1
 : 9 | 9
Cn1c(O)c(C=Nc2ccccc2N)c(=O)n(C)c1=O
 : -3 | -10
Cc1nc(CN(C)C2CCN(CC(=O)NCc3cccs3)C2)no1 (centres undefined)
 : 8 | 6
O=C(O)c1ccc(-c2cccc(-n3cccn3)c2)o1
 : 9 | 3
CC(C)(CC(=O)NNC(=S)NC1CCCCC1)n1ccnc1
 : -1 | 1
CC1CCCC(C)N1C(=O)CN1CCNC(=O)CC1c1ccccc1 (centres undefined)
 : 7 | 4
Cc1nnc(SCc2ccc(C(=O)N3C4CCC3CC(Oc3ccccc3C(C)C)C4)cc2)s1 (centres undefined)
 : 12 | 6

Next part.
Under each structure: NPYLR7 agonist | NPYLR7 agonist max-min
O=C(/C=C/c1cccc(F)c1)N1CCCC1CN1CCOCC1 (centres undefined)
 : 0 | -1
CCn1cc(S(=O)(=O)Nc2ccc(I)cc2C)cc1C(=O)O
 : 1 | -1
O=C(NCC1CC1)c1csc(N2CCN(Cc3ccc(Cl)cc3)C2=O)n1
 : -2 | -4
O=S(=O)(NCc1nnc(SCc2ccc(F)cc2)n1-c1cc(Cl)ccc1Cl)c1cccc(C(F)(F)F)c1
 : 8 | 14
O=C1c2ccccc2-c2n[nH]c3cccc1c23
 : 15&11 | 20&-2
COC(=O)C1CCN(C(c2cc(OC)c(OC)c(OC)c2)C2Sc3nc(C)nn3C2=O)CC1 (centres undefined)
 : -5 | -4
COc1ccccc1C(=O)Nc1ccc2c(c1)CN(Cc1cnc(C)s1)CC2
 : 7 | 4
Cc1nonc1NC(=O)C(C)CCc1cccc(F)c1 (centres undefined)
 : 1&5 | -1&2
COC(=O)CCC(=O)N1CCc2ccccc2C1c1ccccc1F (centres undefined)
 : -5 | 5
CCc1ccc(C(=O)Nc2sccc2C(=O)N2CCNC(=O)CC2)cc1
 : -1 | 36
COc1ccc(-c2cnc3ncnn3c2N2CCCN(C(=O)CC(C)(C)C)CC2)cc1OC
 : 3 | 1
O=C(c1cc2n(n1)CCN(Cc1ccccc1Cl)C2=O)N1CCC(Cc2ccccc2)CC1
 : -7 | 11
O=C(NNc1ncnc2c1cnn2-c1cccc(Cl)c1)c1cccc([N+](=O)[O-])c1
 : 16 | 14
O=C(CCc1cccnc1)N1C[C@H](O)[C@@H](N2CCOCC2)C1
 : 7 | 5
Cc1nn(C(C)C)c(C)c1CN(C)C(=O)CC1C(=O)NCCN1CC(C)C (centres undefined)
 : 8 | 3
COC(=O)c1ncn(CN2CCC(C(=O)NC(C)C(C)C)CC2)n1 (centres undefined)
 : 2 | 2
Cc1cn2c(=O)c(C(=O)N(Cc3ccccc3)c3ccccc3)cnc2s1
 : 7 | 1
Fc1ccc(F)c(NC(=S)NC2CCCCC2)c1
 : -7 | -9
Cc1cc(Oc2ccc(Cl)c(C)c2)nc(SCc2cc(F)ccc2F)n1
 : 0 | 10
COc1cn(CC(=O)Nc2cc(C)on2)c(CN2CCCCCC2)cc1=O
 : 1 | 1

(cont.)
Under each structure: NPYLR7 agonist | NPYLR7 agonist max-min
Cc1cc(N2CCN(c3ccc(F)cc3)CC2)nc(-n2cc([N+](=O)[O-])cn2)n1
 : 5 | 12
CCOC(=O)CSc1nnc(NCC(=O)OC(C)C)c(=O)[nH]1
 : 6 | 2
CCCN(Cc1nnc(C2CCC2)o1)C(C)C(=O)Nc1ccccc1 (centres undefined)
 : -1 | -2
CC(C)(C)CC(=O)N1CC(=O)N(CCc2ccccc2)CC(O)C1 (centres undefined)
 : 3 | 7
Cc1ccc(/C=N\Nc2nc3nonc3nc2Nc2ccc(I)cc2)o1
 : -1 | -9
CN1CCC2(CCCN(C(=O)c3cccc(N)c3)C2)C1 (centres undefined)
 : 15 | 0
O=C(NCC1CC1)[C@@]1(OCc2ccc(F)cc2)CC(OCc2cccc(Cl)c2)[C@H](O)[C@H](O)C1 (some centres undefined)
 : 5 | 6
COC(=O)N1CCCC(C(=O)Nc2ccccc2-c2noc(C)n2)C1 (centres undefined)
 : 1&4 | 1&3
Cc1cccc2c(N=NC(=O)c3cc(Br)ccc3O)c(O)[nH]c12
 : 15 | 7
CC1c2ccsc2CCN1c1c(C#N)c(=O)n(C)c(=O)n1C (centres undefined)
 : 6 | 5
CN(CC1COc2ccccc2O1)C(=O)NC1CC1c1ccc(F)cc1 (centres undefined)
 : 7 | 2
C#CCNS(=O)(=O)c1ccc(C(=O)OC(C)C(=O)Nc2ccccc2C(F)(F)F)cc1 (centres undefined)
 : 18 | 22
N#CC1C(=N)C(C#N)(C#N)C(c2cccc(Cl)c2Cl)C2CSCC=C12 (centres undefined)
 : 10 | 2
O=C(CCN1CCCCO1)NCCc1ccccc1Cl
 : 5 | 5
CCN(C)C(=O)c1cccc(C(=O)Nc2ccc(-c3ncc[nH]3)cc2)c1
 : 1 | -4
CCOC(=O)c1cc(-c2cccc(NC(=O)C3CCCCC3)c2)n(-c2ccccc2C)n1
 : -7 | -6
O=C(CN1CCCc2cc(F)c(F)cc21)Nc1cccnc1Cl
 : 9 | 5
NC(=O)C(SC1CCCC1)c1ccc(F)cc1 (centres undefined)
 : 7 | 5
N/C(=N/OCc1ccc(Cl)c(Cl)c1)c1nonc1N
 : 2 | 0
CCOC(=O)c1nn(Cc2ccccc2)c2c1CN(C(=O)Cc1cccs1)CC2
 : -15 | -17

Next part
Under each structure: NPYLR7 agonist | NPYLR7 agonist max-min
O=C(NCc1ccco1)NC1CC(=O)N(Cc2cccc3ccccc23)C1 (centres undefined)
 : 1 | -7
CCCn1c(C)c(C)n2c3c(=O)n(CC(=O)c4ccccc4)c(=O)n(C)c3nc12
 : 13 | 6
CCCC12CN3CC(C)(CN(C1)C31CCCC1)C2=O
 : 8 | 4
CCCCC(OC(=O)c1ccc(S(=O)(=O)N2CCOCC2)cc1)C(=O)Nc1cc(C)on1 (centres undefined)
 : 8 | 7
Cc1cc(N2C(=O)C(O)=C(C(=O)c3cc4ccccc4o3)C2c2cccs2)no1 (centres undefined)
 : 4 | 10
CN1CCC[C@H]1C(=O)Nc1cccc(NC(=O)CCc2ccccc2)c1
 : -1 | 14
N#Cc1ccsc1NC(=O)c1cc(Cl)c2c(c1)OCO2
 : -7 | -9
CN1CCN(C(=O)c2coc(CN(Cc3ccccc3)Cc3cccc(Cl)c3Cl)n2)CC1
 : 21 | 43
C#CCN(C)C(=O)c1ccc(-c2ccc3c(c2)OCCO3)s1
 : 3 | -1
Cc1ccccc1C(=O)NC1CCN(c2ccccc2C(=O)NCCN2CCCCC2)CC1
 : 18 | 14
O=C(CSc1cn(CCNC(=O)c2ccc(F)cc2)c2ccccc12)NCc1ccccc1
 : 0 | 2
OCc1ccc(N2CCN(c3ncccn3)CC2)c(F)c1
 : 0 | -3
CCOC(=O)c1c(C)c(C(=O)C(C)N(C)S(=O)(=O)c2ccc(Cl)c([N+](=O)[O-])c2)c(C)n1C (centres undefined)
 : 22 | 22
COCCCN(CC(=O)N(Cc1ccccc1)Cc1cccs1)C(=O)c1cccc(C(F)(F)F)c1
 : 17 | 29
O[C@@]1(Cn2ncc3ccccc32)CCCN2CCCC[C@@H]21
 : 15 | 6
Cc1ccc2c(c1[N+](=O)[O-])C(=O)c1ccccc1C2=O
 : -1 | -9
CCOCCC(=O)Nc1cc(C(N)=O)ccc1N1CCCC(C)C1 (centres undefined)
 : 12 | 0
COc1ccc(CCn2cnnc2)cc1OC
 : 3 | 4
c1ccc2c(c1)CCN(C1CCCNC1)C2 (centres undefined)
 : 7 | 3
COCCn1cnnc1SCc1ccc(C)cc1
 : 6 | 2

Assay outcomes (PubChem BioAssay)
